Source: PubChem
Rce1 inhib = yeast Rce1p protease inhibitors, primary screen, biochemical, fluorescence, cell-free homogeneous; CAAX prenyl protease 2 (Saccharomyces cerevisiae (strain ATCC 204508 / S288c)), Q03530; yeast membranes, quenched prenylated peptide cleavage fluorescence; calls only; actives 0.27% (n = 290,000); AID 2563, 2010;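 active means fall in fluorescence gain of 50% or more versus controls, with final raw signal at or below 3038400; inconclusive means same 50% fall but final raw signal above 3038400; inactive means fall in fluorescence gain under 50%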;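 further: plate controls were neutral control wells for no effect and wells lacking membranes for full effect; tested at 10 µM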
Target sequence (Q03530 whole entry, looked up): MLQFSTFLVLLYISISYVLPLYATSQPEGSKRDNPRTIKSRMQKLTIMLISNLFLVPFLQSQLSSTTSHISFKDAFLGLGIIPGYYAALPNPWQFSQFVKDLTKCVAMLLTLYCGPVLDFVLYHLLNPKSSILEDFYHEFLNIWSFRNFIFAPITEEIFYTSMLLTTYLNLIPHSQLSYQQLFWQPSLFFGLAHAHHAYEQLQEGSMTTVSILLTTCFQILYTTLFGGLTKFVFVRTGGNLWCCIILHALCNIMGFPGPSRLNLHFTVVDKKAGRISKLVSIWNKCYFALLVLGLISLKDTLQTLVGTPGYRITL
eIF4H FP inh = human eIF4H binding inhibitors, primary screen, translation initiation inhibitor project, biochemical, uHTS, fluorescence polarization | eIF4H fluorescence polarization binding assay | inhibition, % at 35 µM | actives 0.94% (n = 290,000);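 active means 50% or more with normal probe brightness, or confirmed in later tests; inconclusive means above 50% with abnormal brightness, or retests that disagree; inactive means below 50% or failed in later tests; about a fifth of its hits are not listed in these tables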;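 further: calls also rest on retests at 20 µM and on dose response follow-up; 0% = protein and probe with vehicle and 100% = probe without protein; strong numbers were not always called active; many hits fall short of the cut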
PABP polyA inh = PABP poly(A) RNA binding inhibitors, primary screen, biochemical, fluorescence polarization, uHTS. Polyadenylate-binding protein 1 (Homo sapiens), P11940. actives 1% (n = 290,000). inhibition, % at 35 µM;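 active means 50% or more with normal probe brightness, or confirmed in later tests; inconclusive means above 50% with abnormal brightness, or retests that disagree; inactive means below 50% or failed in later tests; about a fifth of its hits are not listed in these tables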;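 further: calls also rest on retests at 20 µM and on dose response follow-up; controls were probe without protein and protein plus probe with vehicle; some compounds called inactive have numbers as strong as hits; many hits fall short of the cut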
MT1-MMP act inh = blockers of MT1-MMP proenzyme processing, primary screen, HT1080 RFP-PRO-GFP cells, GFP/RFP fluorescence; actives 0.061% (n = 360,000); Matrix metalloproteinase-14 (Homo sapiens), P50281; GFP/RFP ratio fluorescence, overnight; percent of plate control window, DMSO zero; GFP/RFP ratio change, % at 20 µM;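 active means GFP/RFP ratio change of at least 30% with cell ATP level not reduced by more than half and red fluorescence within 50% of control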; further: strong numbers were not always called active
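Assay system: HT1080 RFP-PRO-GFP cells. Benchmarks: DMSO vehicle wells and RFP-L50D-GFP reporter cell wells. Times: overnight cell settling, then overnight compound exposure, 37 °C, 5% CO2. Compound: 20 µM single dose, 1% DMSO. Read-out basis: GFP/RFP fluorescence ratio.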
Yeast UUG start = modulators of yeast start codon fidelity, primary screen, whole organism, S. cerevisiae, single point, plate reader. S. cerevisiae UUG-firefly luciferase reporter, luminescence/redox ratio. actives 0.13% (n = 350,000). activity score, % at 18.7 µM;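 active means replicate mean at a twofold rise or more, about +100% in these data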;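 further: firefly luciferase made from a UUG start codon reports start codon fidelity; reporter light over untreated wells divided by growth signal over untreated wells; some hits fall short of that in this replicate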
CSC inhib = cancer stem cell viability inhibitors, primary screen, luminescence. cancer stem cell-like cells viability. inhibition, % at 7.5 µM. actives 1.1% (n = 300,000). AID 2717, 2010;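 active means mean at 75% or more and at least half the replicates too; inconclusive means mean and replicates disagree; tested in HMLE shEcad cells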;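 further: 0% = median of negative and 100% = median of positive control wells; the first replicate is given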
HIV Env fusion = inhibitors of HIV-1 Env-driven cell-cell fusion, primary screen, HeLa-JRFL effector, CEM21 target cells, luciferase; inhibition, % at 12.3 µM; actives 1.1% (n = 360,000);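 active means mean replicate inhibition score of at least 50 and every replicate individually at or above 50; inconclusive means only one of the two criteria met; inactive means mean below 50 and not all replicates reaching 50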;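 further: 0% = plate neutral controls and 100% = maraviroc near 300 nM; one replicate is shown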
PABP polyA inh retest = recorded beside PABP polyA inh, whose call it bears; inhibition, %; compound at 20 µM; confirmation repeats;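 mean of two retest wells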
MT1-MMP act inh RFP = further read-out of MT1-MMP act inh, marked with its call; RFP signal change, %; measured here: RFP expression control read;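 0 = vehicle wells; hits needed this value within 50% of zero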
Numbers without * were called inactive; i = inactive; u = inconclusive; x = not tested or not shown. The list is partial, so the mix of outcomes need not match the whole.

SMILES	Rce1 inhib	eIF4H FP inh	PABP polyA inh	MT1-MMP act inh	MT1-MMP act inh RFP	Yeast UUG start	CSC inhib	HIV Env fusion	others
O=C(Nc1cccc(Cl)c1)c1nc[nH]c1C(=O)NCCN(CCNC(=O)c1[nH]cnc1C(=O)Nc1cccc(Cl)c1)CCNC(=O)c1[nH]cnc1C(=O)Nc1cccc(Cl)c1	x	x	x	-6	-1	-10	x	-26
O=C(c1ccco1)N1CCCN(Cc2nc(-c3ccc4c(c3)OCO4)no2)CC1	i	5	18	-2	-6	-3	6	-6
Cc1cc(C)c(N2C(=O)CC(Sc3ccccc3N)C2=O)c(C)c1 (configuration not stated)	x	x	x	-2	-2	-6	x	-5
COc1ccc(CCN(Cc2ccccn2)C(=S)Nc2ccccc2C)cc1OC	i	4	6	-1	0	x	-1	-3
O=c1o[nH]c(-c2ccccc2)c1N=Nc1c(F)cccc1Cl	i	-3	-3	-1	-6	6	24	9
O=C(CN(C(=O)CSc1nnc(COc2ccccc2)o1)c1ccc(F)cc1)NC1CCCC1	i	-2	3	-11	-8	5	2	-9
CCOc1ccc(N(CC(=O)NCCc2ccc(Cl)cc2)S(=O)(=O)c2c(C)[nH]c(=O)[nH]c2=O)cc1	i	-12	-10	-1	0	6	-11	6
CN(C)S(=O)(=O)c1ccc(Cl)c(C(=O)OCC(=O)c2ccco2)c1	x	x	x	1	2	-9	-3	x
Cc1ccc2oc(=O)cc(CN3CCOCC3)c2c1	x	-4	-11	1	3	-11	-18	x
CC(=O)c1cccc(NC(=O)C2C3C=CC(C3)C2C(=O)O)c1 (configuration not stated)	i	-15	11	3	4	-3	-6	-1
Cc1ccc(C(=O)c2cc3ccccc3o2)cc1	i	0	-5	-3	-1	-17	-1	i
COc1ccc(S(=O)(=O)Nc2cccc(-c3ccc4nncn4n3)c2)c(OC)c1	i	x	x	3	-3	-21	-1	4
CCN1C(=O)C(CC(=O)Nc2ccc(OC)cc2)N(CCc2ccc(F)cc2)C1=S (configuration not stated)	i	8	-6	1	-9	2	24	18
CN1CCN(c2ccccc2NC(=O)c2sc3ccccc3c2Cl)CC1	i	25	7	-1	-7	x	42	3
CCN(CC)CCCNC(=S)N1CCC(c2nc3ccccc3[nH]2)CC1	i	0	3	0	1	-24	-12	14
C=CCn1c(C(O)c2ccccc2)nc2ccccc21 (configuration not stated)	i	-9	2	-5	-2	-20	-15	0
CC(=O)c1cccc(NC(=S)NNC(=O)c2ccco2)c1	i	9	-2	3	6	x	-11	7
O=C(NCc1ccncc1)C(=O)NCC(c1ccco1)N1CCN(c2ccc(F)cc2)CC1 (configuration not stated)	i	-5	2	5	-5	-11	0	x
CC(C)(C)C(=O)N1CCN(c2ccc([N+](=O)[O-])c(NCC3CCCO3)c2)CC1 (configuration not stated)	x	6	7	-1	-4	11	30	26
CCOC(=O)CC(=O)CSc1ncnc2c1cnn2-c1ccccc1	i	22	17	-11	6	-11	x	x
CC1=NCCN1S(=O)(=O)c1cc(Cl)ccc1Cl	i	-2	5	-3	-2	-7	-4	-50
CC(=O)N1CCN(c2ccc(Oc3ncnc4sccc34)cc2)CC1	i	-1	3	-2	-9	3	-3	u
Cc1ccc(C(=O)NCC(=O)NCC(=O)OCC(=O)c2ccc(Br)cc2)cc1	i	-3	-3	-2	3	x	1	-16
CN1CCN(c2nc3ccccn3c(=O)c2/C=C(\C#N)S(=O)(=O)c2ccc(Cl)cc2)CC1	i	3	5	-2	2	x	0	-5
CC1CN(Cc2cc(=O)[nH]c(C(C)C)n2)CC(C)O1 (configuration not stated)	i	-16	-3	2	10	-13	-15	6

Retrieved by structure from above:
SMILES	Rce1 inhib	eIF4H FP inh	PABP polyA inh	MT1-MMP act inh	MT1-MMP act inh RFP	Yeast UUG start	CSC inhib	HIV Env fusion	others
CC(=O)c1cccc(NC(=S)NNC(=O)c2ccco2)c1	i	9	-2	3	6	x	-11	7
CC(=O)N1CCN(c2ccc(Oc3ncnc4sccc34)cc2)CC1	i	-1	3	-2	-9	3	-3	u
CCN1C(=O)C(CC(=O)Nc2ccc(OC)cc2)N(CCc2ccc(F)cc2)C1=S (configuration not stated)	i	8	-6	1	-9	2	24	18
O=C(Nc1cccc(Cl)c1)c1nc[nH]c1C(=O)NCCN(CCNC(=O)c1[nH]cnc1C(=O)Nc1cccc(Cl)c1)CCNC(=O)c1[nH]cnc1C(=O)Nc1cccc(Cl)c1	x	x	x	-6	-1	-10	x	-26
Cc1ccc2oc(=O)cc(CN3CCOCC3)c2c1	x	-4	-11	1	3	-11	-18	x
Cc1ccc(C(=O)c2cc3ccccc3o2)cc1	i	0	-5	-3	-1	-17	-1	i

Further records
SMILES	Rce1 inhib	eIF4H FP inh	PABP polyA inh	MT1-MMP act inh	MT1-MMP act inh RFP	Yeast UUG start	CSC inhib	HIV Env fusion	others
COc1cc(/C=N/NC(=O)c2ccncc2)ccc1OC(=O)c1ccco1	i	-10	1	0	3	-11	x	8
O=C(/C=C/c1ccccc1[N+](=O)[O-])NCCc1ccc(F)cc1	i	12	-8	1	4	x	12	-1
Cc1ccc(OCCCCNC2CCCC(C)C2C)c(C)c1 (configuration not stated)	i	9	15	-16	-21	x	54	30
CCC1CCCCN1CCCNC(=O)CSc1nc2nc(C)c(Cc3ccc(C)cc3)c(C)n2n1 (configuration not stated)	i	4	14	-2	-2	9	-12	9
Cc1coc2cc3oc(=O)c(CCC(=O)NCCCN4CCOCC4)c(C)c3cc12	x	-11	-2	5	2	-13	-15	x
CCn1cc(/C=C(\NC(=O)c2ccccc2F)C(=O)NCCCn2ccnc2)c2ccccc21	i	-8	-2	-2	-2	x	4	24
Cc1ccc(-c2cc(C(F)(F)F)n3nc(C(=O)N4CCN5CCCC5C4)cc3n2)cc1 (configuration not stated)	x	-8	0	7	2	-25	-10	27
CCOCCCNC(=O)CN1C(=O)c2cccc3cccc1c23	i	-7	-24	0	2	-11	-25	11
O=C(NC(=S)Nc1cccc2c(O)cccc12)c1cccc(Br)c1	i	26	20	2	2	-8	53	-7
Cc1cccc(C(=O)Nc2ccc(C(=O)c3ccncc3)cc2)c1	x	x	x	5	-13	-3	x	9
O=C(O)CC(CC(=O)Nc1ccc(F)c(Cl)c1)c1ccc(Cl)cc1Cl (configuration not stated)	i	-4	0	1	1	-4	-2	19
COc1cc2cc(NC(C)=O)cc(NCc3ccccc3)c2cc1OC	i	4	16	-1	-1	-2	-13	-30
CC(C)c1cc(C(=O)N/N=C/c2cccnc2)n[nH]1	i	7	-12	1	7	x	-15	-29
CSc1ccccc1C(=O)N1CCC(n2nccc2NC(=O)C(C)(C)C)CC1	i	4	4	-2	2	-8	-12	-5
O=C(NC(=S)N1CCN(c2ccc([N+](=O)[O-])cc2)CC1)c1ccco1	i	1	-2	5	0	-15	-12	6
O=C1CSC(=Nc2ccc(Cl)cc2)N1Cc1cccnc1	i	-6	-3	1	-5	-3	-9	-3
O=C(c1cccs1)N(Cc1cccc(F)c1)C1CCS(=O)(=O)C1 (configuration not stated)	i	x	x	1	3	4	3	1
Cc1nnc(NC(=O)CSc2nnc(NC(=O)C(C)(C)C)s2)s1	i	u	65	-2	3	-6	-4	11	PABP polyA inh retest=27
CCN(CC)CC(=O)Nc1c(C#N)cnn1-c1ccccc1	i	-1	0	4	4	-21	-13	7
O=C(NCCCN1CCOCC1)C1CCCN(S(=O)(=O)N2CCCCC2)C1 (configuration not stated)	i	x	x	0	3	-18	-1	-9
COc1cc(C(=O)NC2CCN(C)CC2)ccc1Nc1ncc2c(n1)N(C1CCCCC1)CCC(=O)N2C	x	x	x	29	10	-14	x	-61
COc1ccc(Cl)cc1S(=O)(=O)NCCCn1ccnc1	i	-6	5	-1	-2	-19	-13	-13
CCCN(C(=O)CSc1ncccn1)C1CCS(=O)(=O)C1 (configuration not stated)	x	x	x	5	0	-14	-13	-123
O/N=C1\CCSc2ccc(F)cc21	i	-10	2	3	2	x	-1	-5
Fc1ccccc1Cc1nnc2n1N=C(c1ccc(Cl)cc1)CS2	i	-7	-4	1	-2	-15	-9	x

Brought forward from above: four entries, followed by the next part.
SMILES	Rce1 inhib	eIF4H FP inh	PABP polyA inh	MT1-MMP act inh	MT1-MMP act inh RFP	Yeast UUG start	CSC inhib	HIV Env fusion	others
COc1ccc(Cl)cc1S(=O)(=O)NCCCn1ccnc1	i	-6	5	-1	-2	-19	-13	-13
CCCN(C(=O)CSc1ncccn1)C1CCS(=O)(=O)C1 (configuration not stated)	x	x	x	5	0	-14	-13	-123
O/N=C1\CCSc2ccc(F)cc21	i	-10	2	3	2	x	-1	-5
Fc1ccccc1Cc1nnc2n1N=C(c1ccc(Cl)cc1)CS2	i	-7	-4	1	-2	-15	-9	x
CCc1noc(C)c1C(=O)OCC(=O)NC(=O)c1ccccc1	i	2	-2	-1	1	-15	-4	x
O=C(CSc1nnc(-c2ccncc2)n1C1CCCCC1)Nc1ccccc1	i	7	-5	6	-5	-17	0	-39
O=C(Nc1cccc(-c2cn3ccccc3n2)c1)c1ccccc1	i	-2	-2	24	6	x	8	-14
COC(=O)c1c(NC(=S)Nc2cc(OC)c(Cl)cc2OC)sc2c1CCCCC2	i	8	3	4	8	-17	9	-127
CCN(CC)CCCN1C(=O)C(=O)/C(=C(/O)c2ccc3c(c2)OCCO3)C1c1ccc(C)o1 (configuration not stated)	x	3	12	x	x	x	x	-40
Cc1ccc([N+](=O)[O-])cc1NC(=O)CN(C1CCCCC1)S(=O)(=O)c1ccc(Cl)cc1	i	-2	-16	-9	-12	-12	x	x
Cc1ccc(NC(=O)CCC(=O)N/N=C/c2coc3ccc(F)cc3c2=O)cc1	i	x	x	-9	-5	-9	-4	-1
O=C(NCCN1C(=O)S/C(=C\c2ccccc2)C1=O)c1cc(S(=O)(=O)N2CCOCC2)c(Cl)cc1Cl	i	-7	-4	1	-4	x	3	40
CCOc1ccc2[nH]c(=O)c(CN(Cc3cccnc3)C(=O)Nc3ccccc3OC)cc2c1	i	-1	2	-3	-2	-17	-4	x
Nc1nc(SCc2ccc(Cl)cc2)[nH]c(=O)c1-c1ccccc1	i	0	2	2	-1	3	15	-45
O=C1C(Nc2cccc(O)c2)=C(N2CCCCC2)C(=O)c2ccccc21	i	6	16	-24	-1	-14	x	9
Cc1ccc(NC(=O)C2CCN(S(=O)(=O)c3cccc4nonc34)CC2)nc1	i	6	11	-1	-5	-20	-13	x
O=C(N/N=C/c1ccsc1)c1ccc2c(c1)OCO2	x	x	x	-2	2	-17	3	-10
